WNV protease inh: WNV NS2B-NS3 proteinase inhibition | z-score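 (tested at a level between 10 and 100 µM)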 | WNV NS2B-NS3 protease, fluorogenic substrate Ex360/Em465; hits give low values | hit rate 0.18% among 65,000 | P06935;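 active = z-score at -3 or under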;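 note: score is relative to mean and spread of the compound wells of a plate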
Target sequence (P06935 1371-1501 limits assumed): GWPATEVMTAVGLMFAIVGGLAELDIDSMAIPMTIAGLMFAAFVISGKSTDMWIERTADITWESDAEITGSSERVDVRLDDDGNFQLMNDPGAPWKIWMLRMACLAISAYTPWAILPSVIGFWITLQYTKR
Target sequence (P06935 1502-1679 limits assumed): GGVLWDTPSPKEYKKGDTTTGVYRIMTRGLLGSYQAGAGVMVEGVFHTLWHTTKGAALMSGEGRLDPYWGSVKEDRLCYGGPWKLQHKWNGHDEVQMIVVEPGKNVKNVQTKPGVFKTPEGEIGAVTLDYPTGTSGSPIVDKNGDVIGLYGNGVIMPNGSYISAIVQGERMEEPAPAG
MT1-MMP promoter: inhibitors of MT1-MMP promoter transcription, cell-based, luciferase reporter, luminescence (AID 618) | MT1-MMP promoter luciferase reporter cells, luminescence | calls from a first round at 10 µM; hits with a dose series show EC50 in µM | hit rate 0.62% among 87,000;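 active = over half of the reporter light lost at 10 µM or EC50 under 50 µM; inactive = the rest and hits that failed the dose series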;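 note: actives suppress MT1-MMP promoter-driven transcription so potencies describe inhibitors; HT1080 fibrosarcoma cells; overnight exposure; toxic or luciferase-blocking compounds were not removed from the actives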
Hsc70: small molecules displacing fluorescent ligand from Hsc70 – biochemical, fluorescence polarization, primary screen (AID 568). 83,000 tested, under 10 active. Hsc70 fluorescence polarization, probe displacement; higher % means a stronger effect; strong numbers were not always called active. displacement, % at 20 µM; hits with a dose series show IC50 in µM;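 active = displacement above 50% without optical interference and an IC50 on retest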;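 note: ATPase domain with a fluorescein-tagged ATP probe; 0% = vehicle and 100% = excess ADP; read after one hour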
The depositor's hits bear a star; i = inactive; / = not tested or not shown.

The opening 6 records (preview)
Every second line gives: Hsc70, MT1-MMP promoter, WNV protease inh
C=CCN(C(=O)Nc1ccc(Cl)cc1)C1CC(=O)N(c2ccc(OC)cc2)C1=O (stereo unspecified)
 : 1.3%, i, -1.1
Cc1cccc2cc(CN(CCCO)C(=O)Nc3ccc(Cl)cc3)c(=O)[nH]c12
 : -6.0%, i, -0.3
COc1cc(C(=O)Nc2cccc(-c3nncn3C)c2)cc(OC)c1OC
 : -2.3%, i, -0.17
CSC1=C(C#N)C(C)C2=C(CC(C)(C)CC2=O)N1 (stereo unspecified)
 : -4.1%, i, -0.9
COc1cc(NS(=O)(=O)c2ccc(NC(=O)c3ccc(C)o3)cc2)nc(OC)n1
 : -1.3%, i, -0.66
Cc1n[nH]c(=O)nc1NCCc1ccccc1
 : 3.4%, i, /

The listing, previewed entries included:
Every second line gives: Hsc70, MT1-MMP promoter, WNV protease inh
C=CCN(C(=O)Nc1ccc(Cl)cc1)C1CC(=O)N(c2ccc(OC)cc2)C1=O (stereo unspecified)
 : 1.3%, i, -1.1
Cc1cccc2cc(CN(CCCO)C(=O)Nc3ccc(Cl)cc3)c(=O)[nH]c12
 : -6.0%, i, -0.3
COc1cc(C(=O)Nc2cccc(-c3nncn3C)c2)cc(OC)c1OC
 : -2.3%, i, -0.17
CSC1=C(C#N)C(C)C2=C(CC(C)(C)CC2=O)N1 (stereo unspecified)
 : -4.1%, i, -0.9
COc1cc(NS(=O)(=O)c2ccc(NC(=O)c3ccc(C)o3)cc2)nc(OC)n1
 : -1.3%, i, -0.66
Cc1n[nH]c(=O)nc1NCCc1ccccc1
 : 3.4%, i, /
Cc1ccc2cc(CN(Cc3cccs3)Cc3nnnn3C(C)(C)C)c3nnnn3c2c1
 : -3.2%, i, 0.13
O=C1c2ccccc2C(=O)N1CCCCN1CCN(CCCCN2C(=O)c3ccccc3C2=O)CC1
 : -5.1%, i, -0.44
Cc1nnc2sc(-c3cccc(NC(=O)c4cccnc4)c3)nn12
 : -4.3%, i, 0.46
O=C(CN1CCN(Cc2ccccc2)CC1)NCC1COc2ccccc2O1 (stereo unspecified)
 : -2.3%, i, 0.02
Cn1c(=O)[nH]c(=O)c2c1nc(OC(=O)c1ccccc1)n2CC(O)COc1ccccc1 (stereo unspecified)
 : 5.9%, i, -0.5
COc1cccc(NC(=O)NC2(C(F)(F)F)Oc3ccccc3O2)c1
 : 1.2%, i, -0.68
CCCCN(C)C(=O)C1CCN(Cc2ccccn2)CC1
 : -1.0%, i, -0.0079
CCCOc1ccc(OCCCCNC(C)CC)cc1 (stereo unspecified)
 : -4.0%, i, /
COc1cc(NC(=O)C2C3C=CC(C3)C2C(=O)O)c(OC)cc1Cl (stereo unspecified)
 : -0.4%, i, -0.31
COc1cccc(C(=O)Nc2cccc(C(=O)NC3=NN(c4c(Cl)cc(Cl)cc4Cl)C(=O)C3)c2)c1
 : 1.7%, i, /
CCCc1ccc(Oc2cn[nH]c2-c2ccc(O)c(C)c2O)cc1
 : -8.4%, i, -0.79
Cc1oc(-c2ccc3c(c2)OCCO3)cc1C(=O)NC(CCC(=O)O)C(=O)O (stereo unspecified)
 : -8.9%, i, -1.1
O=C(COC(=O)c1ccc(S(=O)(=O)N2CCOCC2)cc1)NC1CCCC1
 : 0.2%, i, 0.04
O=S(=O)(Nc1ccccn1)c1ccc(Cl)cc1
 : 0.0%, i, 3
CCn1cc(C(=O)NCC2CCCO2)c(=O)c2cc(S(=O)(=O)N3CCCCCC3)ccc21 (stereo unspecified)
 : 2.0%, i, 0.66
COc1cccc(N=C2SC(C(=O)Nc3ccc(F)cc3)CC(=O)N2C)c1 (stereo unspecified)
 : -2.4%, i, 0.05
CC(=O)c1cc(-c2ccccc2)n(CC(=O)NC2CCCC2)c1C
 : 5.6%, i, /
COCCOC(=O)c1c(C)oc2ccc(OC(=O)c3cccs3)cc12
 : -0.1%, i, -0.48
COC(=O)Nc1ccc(S(=O)(=O)N(CCO)CC(F)(F)C(F)F)cc1
 : 3.8%, i, -0.69
CC(C)(SC(=S)N1CCOCC1)C(=O)O
 : -2.2%, i, /
COC(=O)C1=C(C)N(C)C(=O)/C1=C\c1cccs1
 : -1.6%, i, /
Cc1cc(O)c(NC(=O)c2ccc(Br)o2)cc1C
 : -3.8%, i, -0.03
C=CCN1C(=O)CS/C1=N/c1nccs1
 : -5.0%, i, -0.42
CSc1ccc(/C=N/n2c(C)cc(C)cc2=O)cc1
 : 6.8%, i, -1
COC(=O)CSc1cc(C)nc2ccc(OC)cc12
 : 5.9%, i, /
Cc1nc(C)c(C(=O)OCC(=O)N2CCN(c3ccccc3)CC2)s1
 : 3.1%, i, 0.21
Cc1cc(C)c2cc(CN(Cc3ccco3)C(=O)NCc3ccccc3)c(=O)[nH]c2c1
 : -7.4%, i, -0.31
Cc1cc(NC2CCCCC2)nc(N2CCOCC2)n1
 : 0.0%, i, -0.29
Cc1cccc(CC(=O)Nc2c3c(nn2-c2cccc(Cl)c2)CS(=O)C3)c1 (stereo unspecified)
 : -5.8%, i, -0.05
Cc1noc(C)c1COC(=O)c1ccc2ccccc2n1
 : -3.1%, i, -0.94
COc1cc(C2C(C(=O)N3CCOCC3)=C(C)NC3=C2C(=O)CCC3)ccc1OC(C)=O (stereo unspecified)
 : 0.1%, i, 2
Cn1c(=NC(=O)CN2C(=O)C3CC=CCC3C2=O)sc2ccccc21 (stereo unspecified)
 : 3.5%, i, 0.43
CC(=O)Nc1ccc(-c2nn3c(C)nnc3s2)cc1C
 : -6.7%, i, 1.8
COc1ccc(CN2CCN(C(=O)c3cccs3)CC2)cc1
 : -2.6%, i, 0.32
COC(=O)C(C)Sc1nnc(Cc2cc(=O)[nH]c(=O)[nH]2)n1-c1cc(C)ccc1C (stereo unspecified)
 : 5.1%, i, 0.42
COc1ccc(C(=O)Nc2nc3ccccc3[nH]2)cc1OC
 : 0.7%, i, -0.81
Cc1cc2nc(C)n(CCCNC(=O)Nc3ccccc3)c2cc1C
 : 0.8%, i, /
O=C(CC1NCCNC1=O)Nc1ccc(Oc2ccccc2)cc1 (stereo unspecified)
 : -4.3%, i, -2
COc1ccc(OC)c(NC(=O)CSCc2cnn(-c3ccccc3)c2-n2cccc2)c1
 : -3.0%, i, -0.28
COc1cccc(S(=O)(=O)NCc2ccc(C(=O)NCC3CCCO3)cc2)c1 (stereo unspecified)
 : 1.1%, i, 0.2
Cc1onc(-c2ccccc2Cl)c1C(=O)N1CCc2ccccc2C1
 : -2.1%, i, /
Cc1ccc(S(=O)(=O)n2nc(C)c(Br)c2C)c(C)c1C
 : -0.5%, i, 1.8
COC(=O)c1cccc(N2C(=O)c3cccnc3C2=O)c1
 : -1.3%, i, 1.4
O=c1[nH][nH]c(C(F)(F)F)c1C=NCc1ccccc1Cl
 : -3.2%, i, /
Cc1cccc(-c2nc(CS(=O)CC(=O)N3CCN(C)CC3)c(C)o2)c1 (stereo unspecified)
 : -1.9%, i, 0.11
COC(=O)[C@@H](NC(=O)NCc1ccc(F)cc1)C(C)C
 : 0.5%, i, /
O=C(CSc1nnc(-c2cnccn2)n1Cc1ccco1)c1ccccc1
 : -1.1%, i, -0.36
CCOC(=O)C(OC(=O)c1sc(=S)n(C)c1C)C(C)=O (stereo unspecified)
 : 3.1%, i, -0.75
CCOC(=O)C1=C(C)NC(=O)C(C#N)C1c1ccco1 (stereo unspecified)
 : 3.7%, i, -0.88
CCOc1ccc(NC(=O)C2CC(=O)N3CCCN=C3S2)cc1 (stereo unspecified)
 : -0.1%, i, 0.18
CCC(=O)Nc1c(OC(=O)CC)ccc2c(C)cc(=O)oc12
 : -0.4%, i, 1.4
O=C(Cn1cc(C(=O)c2ccco2)c2ccccc21)NCc1ccco1
 : 2.3%, i, /
CCOC(=O)N1CCC(n2c(SCC(=O)N3CCC(C)CC3)nc3ccccc3c2=O)CC1
 : 2.7%, i, /
Cn1c(=O)c2c(nc(NCc3ccccc3)n2C)n(C)c1=O
 : -1.7%, i, -0.77

Additional entries:
Every second line gives: Hsc70, MT1-MMP promoter, WNV protease inh
CCc1ccccc1Nc1ccc(C(=O)O)cc1N
 : -2.0%, i, -0.81
COc1cccc(/C(O)=C2/C(=O)C(=O)N(CCCN(C)C)C2c2cccc(Cl)c2)c1 (stereo unspecified)
 : 0.2%, i, 0.24
O=C(O)CNC(=O)c1ccc2c(c1)OCCO2
 : -3.2%, i, -0.06
O=C(NCC1CCCO1)c1ccc2ccccc2n1 (stereo unspecified)
 : -0.2%, i, /
CC1(C)CC(=O)C(CC2=C(O)CC(C)(C)CC2=O)C(=O)C1
 : 1.1%, i, 1.6
O=S(=O)(c1ccc(N2CCCC2c2nc3ccccc3s2)nc1)N1CCOCC1 (stereo unspecified)
 : 0.9%, i, -0.49
CC(C)C(C(=O)NC(C)(C)C)N1C(=O)c2ccccc2C1=O (stereo unspecified)
 : 5.8%, i, -1.1
Cc1ccc(Cn2nc(C)c(NC(=O)c3noc4c3CCCCC4)c2C)cc1
 : -0.9%, i, -0.09
O=C(CCNc1n[nH]c(=O)[nH]c1=O)N1CCCCC1
 : 4.9%, i, 0.07
O=C(Nc1ccc2c(c1)CCC2)C1CCCN(c2ncccn2)C1 (stereo unspecified)
 : 6.8%, i, 0.98
Cc1ccc(CC2C(=O)N(CC(=O)O)C(=O)C2C)cc1 (stereo unspecified)
 : 4.6%, i, /
CC(NC(=O)c1cc(-c2cccs2)on1)c1ccccc1 (stereo unspecified)
 : -1.4%, i, -1.1
CCOC(=O)C1CCN(C(=O)COc2cc(C)c(Br)cc2C)CC1
 : 6.1%, i, -0.13
COc1cc2c(cc1OC)C(C(=O)N1CCCCC1)C(c1ccccc1F)N(C)C2=O (stereo unspecified)
 : -6.0%, i, 2.9
CCN(CC)c1ccc(CN(C(=O)c2ccco2)C2CCS(=O)(=O)C2)cc1 (stereo unspecified)
 : -11%, i, -0.17

Part of the list above, set out differently:
> O=C(NCC1CCCO1)c1ccc2ccccc2n1 (stereo unspecified)
  Hsc70: -0.2%; MT1-MMP promoter: i; WNV protease inh: /

> CC1(C)CC(=O)C(CC2=C(O)CC(C)(C)CC2=O)C(=O)C1
  Hsc70: 1.1%; MT1-MMP promoter: i; WNV protease inh: 1.6

Following part
Every second line gives: Hsc70, MT1-MMP promoter, WNV protease inh
CC(C)Nc1nc(NC(C)C)nc(Oc2ccc(OCc3ccccc3)nn2)n1
 : 4.5%, i, /
CCC(C)NC(=O)c1ccccc1NC(=O)C(C)N(c1ccccc1)S(C)(=O)=O (stereo unspecified)
 : -0.1%, i, 0.51
CC1(C)Cc2nc(N)c(=O)sc2C1
 : -1.6%, i, 1.9
CCOC(=O)C1CCN(C(=O)C23CC4CC(CC(C4)C2)C3)CC1
 : 7.4%, i, /
C=CCn1c(SCc2c(C)noc2C)nc2cc(C(=O)O)ccc2c1=O
 : -1.0%, i, 0.05
O=C(Cc1cccs1)Nc1ccccc1C(=O)O
 : -6.6%, i, -0.06
Cn1c(N2CCN(C(=O)Nc3ccc(F)cc3)CC2)nc2ccccc21
 : -2.2%, i, /
CCCc1nc2ccccc2c(=O)n1NC(=O)c1c(O)c2cccc3c2n(c1=O)CCC3
 : 2.9%, i, 0.95
O=C(CCn1nnc(-c2cccs2)n1)N1CCc2ccccc2C1
 : -0.8%, i, 0.57
COc1ccc(C(c2sc3nc(C)nn3c2O)N2CCc3ccccc3C2)cc1 (stereo unspecified)
 : -2.2%, i, 0.38
CCc1nnc(NC(=O)CSc2nnc(COc3cccc(C)c3)o2)s1
 : 2.9%, i, 1.7
CCOc1ccc(-c2nnn(CC(=O)NCc3ccco3)n2)cc1
 : -2.0%, i, -0.93
CCSc1nc(N)c2c3c(sc2n1)CN(C)CC3
 : 3.9%, i, 2.3
CC(C)Cn1c(=O)c(C(=O)Nc2ccncc2)c(O)c2ccccc21
 : 6.0%, i, -0.71
CC(=O)OCc1nc2sc3c(c2c(=O)[nH]1)CCCC3
 : 1.3%, i, /
C=CCN(c1ccccc1)S(=O)(=O)c1ccc2c(c1)oc(=O)n2C
 : -1.0%, i, 1.1
N=c1n(CC(=O)O)c2ccccc2n1Cc1ccccc1Cl
 : 1.1%, i, -0.61
CC(C)(C)c1ccc(C(=O)CCCSC2=C(C#N)C(c3ccco3)C3=C(CCCC3=O)N2)cc1 (stereo unspecified)
 : -15%, i, -1
O=C(c1cccc(COc2cccc3ccccc23)c1)N1CCCC1
 : 6.8%, i, /
COc1ccc(C(=O)NCCCN2CCCC2=O)cc1
 : -0.4%, i, /
O=C(CSc1nnc(-c2ccncc2)o1)Oc1ccccc1
 : -3.6%, i, -0.4
COc1ccccc1N1CCN(C(=O)c2cc3n(n2)C(C(F)(F)F)CC(c2ccco2)N3)CC1 (stereo unspecified)
 : -1.7%, i, -0.9
Cc1cc(C(=O)O)cc(S(=O)(=O)N2CCOCC2)c1C
 : -0.3%, i, -0.13
CNC(C)c1cc(OC)ccc1OC (stereo unspecified)
 : 1.6%, i, /
Cc1ccc(=O)n(C(C(=O)NCc2ccco2)C(=O)c2ccc(F)cc2)c1 (stereo unspecified)
 : -2.7%, i, 0.05
Cc1cc(C)n(C2=NS(=O)(=O)c3ccccc32)n1
 : 0.4%, i, 0.48
CC(C)C(c1nnnn1Cc1cccs1)N1CCN(C2CCCC2)CC1 (stereo unspecified)
 : 2.9%, i, 0.33
CC1CCN(C(=O)CN2C(=O)C(=O)c3ccccc32)CC1
 : 0.1%, i, -1.1
COc1ccccc1C(=O)N1CCN(c2nc3cc(C)c(C)cc3cc2C#N)CC1
 : -2.6%, i, 0.08
